# Source: PubChem BioAssay (Broad Institute)
# NOMO-1 viab – NOMO-1 AML cell viability reduction, primary screen, STK33 inhibitor project, CellTiter-Glo luminescence; NOMO-1 AML viability, 72 h; inhibition, % (test concentration not listed); hit rate 7.5% among 37,000; AID 2330, 2010;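 active = most replicates above 80%; inconclusive = exactly half above 80%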;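 note: wells of about 30 µL received 25 nL stock; 0% = median of vehicle wells and 100% = reference inhibitor level; the first replicate is given; inactives centre near 10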
# Numbers without * were called inactive; ? = inconclusive. The list is partial; rates above refer to the full screens.
Structure | NOMO-1 viab
C[C@H]1CN([C@@H](C)CO)C(=O)Cc2cc(NS(C)(=O)=O)ccc2O[C@H]1CN(C)S(=O)(=O)c1ccccc1 | 10
Cc1nn(CC(=O)NCc2ccccn2)c(C)c1[N+](=O)[O-] | 47
C[C@@H]1CCCCO[C@H](CN(C)C(=O)Nc2ccccc2)[C@@H](C)CN([C@H](C)CO)C(=O)c2cc(NS(=O)(=O)c3ccc(F)cc3)ccc2O1 | 28
COc1ccc(NC(=O)N(C)C[C@H]2Oc3ccc(NC(=O)CCCN(C)C)cc3C(=O)N([C@H](C)CO)C[C@H]2C)cc1 | 3
OC[C@H]1O[C@@H](OCc2ccccc2)[C@H](O)[C@@H](O)[C@@H]1O | 13
COc1ccc(C2CC(=O)c3c(O)cc(O[C@@H]4O[C@H](CO)[C@@H](OC5OCC(O)(CO)C5O)[C@H](O)[C@H]4O)cc3O2)cc1 (some centres not stated) | 15
C[C@H]1CN([C@@H](C)CO)C(=O)Cc2cc(NS(=O)(=O)c3cccs3)ccc2O[C@@H]1CN(C)S(=O)(=O)c1cccs1 | 1
Cc1ccccc1NC(=O)CCc1nc(-c2ccccc2F)no1 | 24
COc1ccc2c(c1)c(/C=C/c1nc3ccc(I)cc3c(=O)n1CCCO)c(C)n2C | -6
COc1ccc(N(C(C)C(=O)Nc2cc(Cl)ccc2C)S(C)(=O)=O)cc1 (configuration not stated) | 24
N#Cc1cccc2cccc(Sc3ccccc3)c12 | 41
COc1ccc(NC(=O)Nc2cccc3c2O[C@H](CN(C)S(=O)(=O)c2ccc(Cl)cc2)[C@@H](C)CN([C@H](C)CO)C3=O)cc1 | 26
COc1ccccc1OCC(=O)Nc1ccccc1C(=O)N1C(C)CCCC1C (configuration not stated) | -13
C[C@H](CO)N1C[C@H](C)[C@@H](CN(C)S(=O)(=O)c2ccc(F)cc2)Oc2c(NC(=O)Nc3ccc(F)cc3)cccc2C1=O | 29
CN(c1ccccc1C(=O)NCC1CCCO1)S(C)(=O)=O (configuration not stated) | -18
C[C@H]1CN([C@@H](C)CO)C(=O)Cc2cc(NS(=O)(=O)c3cn(C)cn3)ccc2O[C@H]1CN(C)CC1CCCCC1 | 22
C[C@@H]1CN([C@H](C)CO)C(=O)c2cccc(NC(=O)NC3CCCCC3)c2O[C@@H]1CN(C)C(=O)Nc1ccc(C(F)(F)F)cc1 | 67
CN1CCN(CC(=O)Nc2sc3c(c2C(=O)Nc2ccccc2)CCCC3)CC1 | 42
C[C@H](CO)N1C[C@H](C)[C@@H](CN(C)C)Oc2ccc(NS(=O)(=O)c3ccccc3)cc2C1=O | 7
Cc1cc(C(=O)Nc2cccc3c2O[C@H](CN(C)C(=O)NC2CCCCC2)[C@@H](C)CN([C@H](C)CO)C3=O)n(C)n1 | -16
O=C(CSc1nc2c(c(C(F)(F)F)n1)CCCC2)Nc1ccccc1 | 3
O=C(O)Cn1c(=O)n(CC(=O)O)c2ccccc21 | 30
CC(C)NC(=O)Nc1cccc2c1O[C@H](CN(C)S(=O)(=O)c1ccccc1)[C@H](C)CN([C@@H](C)CO)C2=O | -3
C[C@H]1CN([C@@H](C)CO)C(=O)Cc2cc(NS(=O)(=O)c3ccc(Cl)cc3)ccc2O[C@H]1CN(C)Cc1ccc(Cl)c(Cl)c1 | 97*
N#Cc1c(NC(=O)Cn2c(=O)oc3cc(Br)ccc32)sc2c1CCCC2 | 21
COc1ccc(S(=O)(=O)N(C)CC(=O)Nc2cccc(C(F)(F)F)c2)cc1C | 18
COc1ccc(S(=O)(=O)N(C)C[C@@H]2Oc3c(NC(=O)C4CC4)cccc3C(=O)N([C@@H](C)CO)C[C@H]2C)cc1 | 20
Cn1c(CSCc2ccccc2)c(C#N)c2ccccc21 | 16
COc1ccc(NC(=O)N(C)C[C@H]2Oc3c(NC(=O)C4CCCCC4)cccc3C(=O)N([C@@H](C)CO)C[C@H]2C)cc1 | 6
O=C(Nc1ccc(I)cc1C(=O)NCC1CCCO1)c1ccco1 (configuration not stated) | -9
Cc1cc(C)n(S(=O)(=O)c2cc(C(=O)O)c(Cl)cc2Cl)n1 | 5
C[C@@H]1CN([C@@H](C)CO)C(=O)c2cccc(NC(=O)Nc3ccccc3)c2O[C@@H]1CN(C)S(=O)(=O)c1cccs1 | 56
Cc1ccc(NC(=O)CSc2n[nH]c(-c3ccccc3Cl)n2)cc1C | 8
Cn1c(=O)c2c(ncn2CCCN)n(C)c1=O | 26
C[C@@H]1CN([C@H](C)CO)C(=O)c2cccc(NC(=O)NC3CCCCC3)c2O[C@@H]1CN(C)S(=O)(=O)c1ccc(Cl)cc1 | 16
CCSC1=C(C#N)C(=O)NCS1 | 13
C[C@H]1CN([C@@H](C)CO)C(=O)Cc2cc(NC(=O)C3CC3)ccc2O[C@H]1CN(C)S(=O)(=O)c1cccs1 | -3
C/C=C(/C)C(=O)O[C@H]1CC(C)(C)C[C@H]2C3=CCC4[C@@]5(C)CC[C@H](O[C@@H]6O[C@H](C(=O)O)[C@@H](O[C@@H]7O[C@H](CO)[C@H](O)[C@H](O)[C@H]7O[C@@H]7O[C@H](CO)[C@@H](O)[C@H](O)[C@H]7O)[C@H](O)[C@H]6O[C@@H]6O[C@@H](C)[C@H](O)[C@@H](O)[C@H]6O)C(C)(C)C5CC[C@@]4(C)[C@]3(C)[C@@H](OC(C)=O)[C@@H](O)[C@@]12COC(C)=O (some centres not stated) | 121*
COc1ccc(NC(=O)Nc2cccc3c2O[C@H](CN(C)Cc2ccc4c(c2)OCO4)[C@H](C)CN([C@@H](C)CO)C3=O)cc1 | 6
O=C1N[C@H](C(=O)O)C1Cc1ccccc1 (some centres not stated) | 10
C[C@H](CO)N1C[C@H](C)[C@H](CN(C)Cc2ccncc2)Oc2ccc(NS(C)(=O)=O)cc2CC1=O | 25
C[C@H]1CN([C@@H](C)CO)C(=O)c2cc(NC(=O)Cn3cnnn3)ccc2O[C@@H]1CN(C)S(C)(=O)=O | 12
C[C@H](CO)N1C[C@H](C)[C@@H](CN(C)Cc2ccncc2)Oc2c(NS(=O)(=O)c3cn(C)cn3)cccc2C1=O | -8
CC(C)NC(=O)N(C)C[C@@H]1Oc2ccc(NC(=O)Nc3cccc4ccccc34)cc2C(=O)N([C@@H](C)CO)C[C@H]1C | 1
COc1ccc(-c2nc3ccccc3o2)cc1NC(=O)COc1ccc(C(C)C)cc1 | 0

# 5 records picked at random from the list so far:
Structure | NOMO-1 viab
Cn1c(=O)c2c(ncn2CCCN)n(C)c1=O | 26
C[C@H](CO)N1C[C@H](C)[C@@H](CN(C)Cc2ccncc2)Oc2c(NS(=O)(=O)c3cn(C)cn3)cccc2C1=O | -8
C[C@H]1CN([C@@H](C)CO)C(=O)Cc2cc(NC(=O)C3CC3)ccc2O[C@H]1CN(C)S(=O)(=O)c1cccs1 | -3
COc1ccc(-c2nc3ccccc3o2)cc1NC(=O)COc1ccc(C(C)C)cc1 | 0
O=C1N[C@H](C(=O)O)C1Cc1ccccc1 (some centres not stated) | 10

# Among those listed so far, these have a CF3 group.
Structure | NOMO-1 viab
C[C@@H]1CN([C@H](C)CO)C(=O)c2cccc(NC(=O)NC3CCCCC3)c2O[C@@H]1CN(C)C(=O)Nc1ccc(C(F)(F)F)cc1 | 67
O=C(CSc1nc2c(c(C(F)(F)F)n1)CCCC2)Nc1ccccc1 | 3
COc1ccc(S(=O)(=O)N(C)CC(=O)Nc2cccc(C(F)(F)F)c2)cc1C | 18

# More records:
Structure | NOMO-1 viab
O=C(NCc1ccccc1)/C(=C\c1ccccc1)NC(=O)c1ccccc1 | 12
Cc1noc(C)c1NC(=O)Nc1ccc2c(c1)CC(=O)N([C@@H](C)CO)C[C@H](C)[C@@H](CN(C)S(=O)(=O)c1ccccc1)O2 | -5
Cc1ccc(-c2nnc(SCC(=O)c3cccc([N+](=O)[O-])c3)n2C)cc1 | 33
C[C@@H]1CN([C@H](C)CO)C(=O)c2cc(NC(=O)CCC(F)(F)F)ccc2O[C@@H]1CN(C)S(=O)(=O)c1ccccc1 | -8
COc1ccc(S(=O)(=O)N(C)CC(=O)Nc2cccc(SC)c2)cc1C | -4
O=C(CCN1C(=O)/C(=C/c2ccc(Cl)cc2)SC1=S)Nc1ccccc1 | 10
COc1ccc(S(=O)(=O)Nc2cccc3c2O[C@@H](CN(C)Cc2ccc(-c4ccccc4)cc2)[C@@H](C)CN([C@@H](C)CO)C3=O)cc1 | 41
Cc1c(C(=O)Nc2cnccn2)oc2ccccc12 | 112*
Cc1ccc(S(=O)(=O)N(C)C[C@H]2Oc3c(NC(=O)NC4CCCCC4)cccc3C(=O)N([C@@H](C)CO)C[C@H]2C)cc1 | 36
CS(=O)(=NS(=O)(=O)c1ccc(-c2ccccn2)s1)c1ccc(Cl)cc1 (configuration not stated) | 35
C[C@H](CO)N1C[C@H](C)[C@H](CN(C)C(=O)Nc2ccc(C(F)(F)F)cc2)Oc2ccc(NS(=O)(=O)c3cn(C)cn3)cc2C1=O | -8
C[C@H](CO)N1C[C@H](C)[C@H](CN(C)Cc2ccncc2)Oc2ccc(NC(=O)c3ccncc3)cc2C1=O | 7
Cc1ccc(-c2nnc(SCC(=O)c3ccc([N+](=O)[O-])cc3)o2)cc1 | 12
COc1ccc(CN(C)C[C@@H]2Oc3ccc(NC(=O)Nc4ccc(F)cc4)cc3C(=O)N([C@H](C)CO)C[C@H]2C)cc1 | 3
C[C@H](CO)N1C[C@H](C)[C@H](CN(C)Cc2ccc(-c3ccccc3)cc2)Oc2ccc(NC(=O)CCCN(C)C)cc2C1=O | ?
COc1cc(C(=O)OCc2ccc(-c3cccc(Cl)c3Cl)o2)cc(OC)c1OC | -21
C[C@@H]1CN([C@@H](C)CO)C(=O)Cc2cc(NC(=O)CCN3CCOCC3)ccc2O[C@@H]1CN(C)C(=O)Nc1ccc(C(F)(F)F)cc1 | 15
Cn1c(SCC(=O)Nc2ccc3c(c2)oc2ccccc23)nc2ccccc2c1=O | 33
CCC(C)c1ccc(NC(=O)CSc2nc3ncccc3[nH]2)cc1 (configuration not stated) | 47
Cc1noc(C)c1NC(=O)Nc1ccc2c(c1)C(=O)N([C@H](C)CO)C[C@H](C)[C@H](CN(C)C(=O)c1ccccc1)OCCCC[C@@H](C)O2 | 3
O=C(COC(=O)c1ccc(Br)cc1)c1ccc(Br)cc1 | 19
Nc1nc(SCC(=O)NCC2CCCO2)[nH]c(=O)c1-c1ccccc1 (configuration not stated) | -14
CC(=O)Oc1ccc(NC(=O)COc2cccc(C)c2C)c(C(=O)O)c1 | 10
C[C@H]1CN([C@@H](C)CO)C(=O)c2cccc(NC(=O)Nc3ccccc3)c2O[C@H]1CN(C)Cc1ccc2c(c1)OCO2 | 21
CNC[C@@H]1Oc2c(NC(=O)Nc3cccc4ccccc34)cccc2C(=O)N([C@@H](C)CO)C[C@H]1C | 29
COc1ccc(C(=O)CSc2nnc(-c3ccccc3)n2-c2ccccc2)cc1 | 1
C[C@H]1CN([C@@H](C)CO)C(=O)c2cccc(NC(=O)c3cnccn3)c2O[C@@H]1CN(C)Cc1ccncc1 | 14
COc1ccc(CCNC(=O)c2ccc(-c3cccc([N+](=O)[O-])c3)o2)cc1OC | -14
Cc1nc(SCC(=O)Nc2ccccc2[N+](=O)[O-])c2c(C)c(C)sc2n1 | 10
CC(C)NC(=O)Nc1ccc2c(c1)C(=O)N([C@@H](C)CO)C[C@@H](C)[C@H](CN(C)Cc1ccccc1)O2 | -4
Cc1noc(C)c1S(=O)(=O)Nc1ccc2c(c1)C(=O)N([C@@H](C)CO)C[C@H](C)[C@H](CN(C)S(=O)(=O)c1cn(C)cn1)O2 | 5
CC(C)(C)NC(=O)Oc1ccc(Cl)cc1 | 4
C[C@@H]1CN([C@@H](C)CO)C(=O)Cc2cc(NC(=O)NC3CCCCC3)ccc2O[C@@H]1CN(C)C(=O)Nc1ccccc1 | 3
C[C@H]1CN([C@@H](C)CO)C(=O)c2cccc(NC(=O)c3nc4ccccc4s3)c2O[C@H]1CN(C)Cc1ccc(-c2ccccc2)cc1 | 50
COc1ccc(NC(=O)Nc2ccc3c(c2)C(=O)N([C@H](C)CO)C[C@H](C)[C@@H](CN(C)C(=O)NC2CCCCC2)OCCCC[C@@H](C)O3)cc1 | -9
C[C@@H]1CN([C@@H](C)CO)C(=O)c2cccc(NS(=O)(=O)c3ccccc3)c2O[C@@H]1CN(C)S(C)(=O)=O | 13
Cc1noc(C)c1NC(=O)Nc1ccc2c(c1)C(=O)N([C@H](C)CO)C[C@H](C)[C@@H](CN(C)S(C)(=O)=O)OCCCC[C@@H](C)O2 | 8
CCC(=O)Nc1ccc(Cl)c(NC(=O)COc2cccc3ccccc23)c1 | -1
C[C@@H]1CN([C@H](C)CO)C(=O)c2cc(NC(=O)CCC(F)(F)F)ccc2O[C@@H]1CN(C)C(=O)Nc1ccc(C(F)(F)F)cc1 | 27
COc1cc(S(=O)(=O)NCCCN2CCOCC2)ccc1Cl | -13
C[C@@H]1CN([C@H](C)CO)C(=O)c2cccc(NS(=O)(=O)c3cccs3)c2O[C@@H]1CN(C)S(=O)(=O)c1ccc(F)cc1 | 24
C[C@@H]1CCCCO[C@@H](CN(C)Cc2ccccc2)[C@@H](C)CN([C@H](C)CO)C(=O)c2cc(NC(=O)Nc3cccc4ccccc34)ccc2O1 | 35
COc1ccc(S(=O)(=O)N(C)C[C@@H]2Oc3c(NS(=O)(=O)c4cn(C)cn4)cccc3C(=O)N([C@@H](C)CO)C[C@@H]2C)cc1 | 1
CCOC(=O)c1nnn2c1nc(Sc1nc3ccccc3o1)c1ccccc12 | 116*
Cc1nc(SCC(=O)Nc2cc(C(F)(F)F)ccc2Cl)nc2c1CCCC2 | 6
C[C@@H]1CN([C@@H](C)CO)C(=O)c2cc(NC(=O)CCCN(C)C)ccc2O[C@H]1CN(C)Cc1ccc(Oc2ccccc2)cc1 | -5
